Bioassay records: PubChem BioAssay, several laboratories
Beta2AR agonist = agonists of human beta-2 adrenergic receptor inducing internalization; P07550; Am2.2-beta2AR cells, FAP receptor internalization, flow cytometry; reference of the scale not given here; response, % (test concentration not listed); hit rate 0.43% among 340,000; AID 504454;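 active = response above a set limit, near 3 SD of response in nonfluorescent compounds, cut at about 42% in these data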;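 also: stock transfer was 100 nL into about 11 µL; a reference agonist was the positive control; negative values mostly stem from fluorescent compounds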
rRNA inh HTS = inhibitors of bacterial rRNA selective over humanized ribosomes; E. coli WT GFP vs humanized-ribosome RFP mutants, fluorescence, 24 h; stronger effect = lower value; DMSO median 0, no signal -100; GFP signal change (wild-type ribosome), % (no concentration beside the values); hit rate 1.6% among 350,000; AID 720706;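 active = significant combined selectivity score with lowered wild-type GFP, culture density cut under 30%, mutant RFP and density less affected; inactive = any of these conditions unmet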; also: one replicate is shown; some compounds called inactive have numbers as strong as hits
Calb FLC = C. albicans growth modulation with fluconazole | C. albicans CaCi-2 (fluconazole-resistant clinical isolate) + fluconazole, Alamar Blue growth, 48 h | AID 1979 | hit rate 0.57% among 300,000 | growth inhibition, % (concentration not given with the values);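 active = most replicates above 75%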;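 also: all wells also contain fluconazole at 8 µg/ml as a sub-toxic cotreatment; 0% = median of DMSO wells and 100% = median of geldanamycin control wells; wells of about 8 µL received 7.5 nL stock; the first replicate is given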
Beta cell apopt = beta cell apoptosis inhibition; INS-1E cytokine-induced death, ATP luminescence, 48 h; percent of positive-control rescue, neutral wells zero; protection from apoptosis, % (no concentration beside the values); hit rate 0.8% among 300,000; AID 435005;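 active = all replicates at 75% or more, or half of them and the mean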;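 also: 0% = cytokine-treated negative control wells and 100% = positive control rescue; higher means more ATP so stronger rescue from cytokine killing; wells of about 40 µL received 100 nL stock; the first replicate is given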
A1 inh = inhibitors of the anti-apoptotic protein A1, read as caspase activation; MEF A1-2A-BIM cells, Caspase-Glo 3/7 luminescence, 3 h; percent of clofoctol response, vehicle zero; caspase activation, % (no concentration beside the values); hit rate 0.066% among 330,000;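 active = over half of replicate activation scores above 10%, or exactly half above 10 with the replicate mean above 10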;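 also: wells of about 30 µL received 50 nL stock; many hits fall short of the cut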
ALR inh = blocks human ALR sulfhydryl oxidase activity | AID 485317 | purified ALR, DTT oxidation, H2O2 HRP-luminol luminescence | inhibition, % (test concentration not listed) | P55789 | hit rate 3.8% among 290,000;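 active = mean and each replicate at 75% or more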;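 also: stock transfer was 7.5 nL into about 7.5 µL; 0% = neutral wells and 100% = wells with inactivated enzyme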
LANA-H2A inh = blocks KSHV LANA binding to histone H2A/H2B | Q9QR71 | cell-free LANA-H2A/H2B peptide, fluorescence polarization | inhibition, % (concentration not given with the values) | hit rate 0.6% among 320,000 | AID 2629; in the data active = inhibition mostly above about 10%, no sharp cut-off; inactive = mostly below about 6.7%;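 also: stock transfer was 7.5 nL into about 10 µL; 0% = median of vehicle wells and 100% = median of positive control wells; one replicate is shown; the record names a cut of 25% in any replicate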
Target sequence (Q9QR71 whole entry, looked up): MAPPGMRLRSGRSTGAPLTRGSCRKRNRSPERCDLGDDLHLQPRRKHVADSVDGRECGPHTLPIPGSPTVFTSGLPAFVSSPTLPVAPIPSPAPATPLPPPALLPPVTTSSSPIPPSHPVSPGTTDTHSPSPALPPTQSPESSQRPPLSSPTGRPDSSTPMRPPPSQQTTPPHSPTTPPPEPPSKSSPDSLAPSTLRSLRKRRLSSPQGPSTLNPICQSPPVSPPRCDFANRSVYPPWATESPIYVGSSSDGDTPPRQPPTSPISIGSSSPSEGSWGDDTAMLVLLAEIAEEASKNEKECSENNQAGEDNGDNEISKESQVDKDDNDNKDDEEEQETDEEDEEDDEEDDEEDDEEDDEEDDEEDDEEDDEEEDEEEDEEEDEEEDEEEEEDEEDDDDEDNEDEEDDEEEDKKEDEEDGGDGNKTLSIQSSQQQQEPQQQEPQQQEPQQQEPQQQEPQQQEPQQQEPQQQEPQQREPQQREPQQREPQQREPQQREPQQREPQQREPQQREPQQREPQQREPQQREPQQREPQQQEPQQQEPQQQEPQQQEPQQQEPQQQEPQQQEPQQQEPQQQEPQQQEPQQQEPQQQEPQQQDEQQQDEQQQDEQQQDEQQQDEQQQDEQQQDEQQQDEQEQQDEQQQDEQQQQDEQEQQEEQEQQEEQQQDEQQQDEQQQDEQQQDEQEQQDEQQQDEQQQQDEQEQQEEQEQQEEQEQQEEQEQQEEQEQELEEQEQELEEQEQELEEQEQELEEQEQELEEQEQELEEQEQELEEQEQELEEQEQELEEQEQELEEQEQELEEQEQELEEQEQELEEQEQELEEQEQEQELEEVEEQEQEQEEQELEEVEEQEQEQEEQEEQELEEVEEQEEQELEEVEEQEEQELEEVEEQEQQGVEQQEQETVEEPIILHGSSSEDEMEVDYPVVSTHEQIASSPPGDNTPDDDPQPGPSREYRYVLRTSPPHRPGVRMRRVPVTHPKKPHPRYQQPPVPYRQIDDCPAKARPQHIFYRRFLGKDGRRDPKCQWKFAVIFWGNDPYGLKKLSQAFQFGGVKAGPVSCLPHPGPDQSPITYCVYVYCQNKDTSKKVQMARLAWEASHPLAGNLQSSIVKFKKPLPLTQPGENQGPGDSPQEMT
T cruzi repl = T. cruzi replication inhibition; T. cruzi beta-gal in NIH3T3, luminescence, 90 h; inhibition, % (concentration not given with the values); hit rate 1.4% among 300,000;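 active = mean inhibition across valid replicates above about 55%, limit read from the data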;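 also: signal also drops with host cell toxicity which is not excluded here; 0% = plate median of DMSO wells and 100% = zero luminescence signal; higher percent means less beta-gal luminescence so fewer parasites; stock transfer was 50 nL into about 50 µL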
rRNA inh HTS OD600 = recorded beside rRNA inh HTS, whose call it bears; OD600 change, %; measured here: OD600 growth;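 optical density of the mix in the first replicate; 0 = DMSO median and -100 = no signal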
rRNA inh HTS RFP = second read-out of rRNA inh HTS, no call of its own (marks repeat the call); RFP signal change, %; measured here: RFP humanized mutant strains;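 first replicate; 0 = DMSO median and -100 = no signal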
The depositor's hits bear a star; x = not tested or not shown.

smiles | Beta2AR agonist | rRNA inh HTS | rRNA inh HTS OD600 | rRNA inh HTS RFP | Calb FLC | Beta cell apopt | A1 inh | ALR inh | LANA-H2A inh | T cruzi repl
Cc1ccc(C(=O)N/C(=C\c2cccc([N+](=O)[O-])c2)C(=O)NCc2ccncc2)cc1 | 2.6 | x | x | x | 2.7 | 2.4 | 0.8 | -1.7 | 0.5 | -6.5
O=S(=O)(Cc1ccccc1)Nc1ccccc1 | -5.8 | 1.9 | 0.0 | -0.8 | -9.2 | -2.3 | 0.9 | -5.8 | -1.4 | -12.6
O=C(O)COc1ccccc1/C=N/NC(=O)c1cccc(S(=O)(=O)N2CCOCC2)c1 | -4.0 | 11.8 | 6.3 | -2.2 | 33.0 | 1.2 | 1.1 | -11.9 | -0.7 | -12.8
Cc1cc([N+](=O)[O-])nn1CCCC(=O)Nc1cccc(Cl)c1Cl | -4.7 | -1.0 | 0.2 | 2.7 | -21.9 | 1.4 | 0.4 | 0.2 | -1.6 | 2.4
O=C(Cc1cccs1)N(Cc1ccco1)C1(C(=O)NC2CCCCC2)CCCCC1 | 1.7 | x | x | x | 6.3 | -1.1 | 0.4 | x | 0.5 | 7.8
Cc1ccc(S(=O)(=O)n2nc(C)cc2N)cc1 | 2.3 | 13.3 | 2.6 | 0.2 | 15.1 | -1.6 | 0.7 | -38.0 | 1.4 | -13.1
CN(C(=O)COC(=O)C1CCN(S(=O)(=O)c2ccc3c(c2)OCCO3)CC1)C1CCS(=O)(=O)C1 (stereo unspecified) | 3.8 | 1.4 | 6.0 | 0.5 | 2.4 | -5.4 | -0.1 | -3.8 | -2.7 | -8.7
CN=C1S/C(=C\c2ccc(O)c(Br)c2)C(=O)N1C | -1.1 | -33.8 | -45.0 | -8.6 | 2.3 | 18.1 | -9.0 | 96.3* | -5.4 | -24.8
COc1ccc(OCCC(=O)Nc2ccc(S(N)(=O)=O)cc2)cc1 | 5.8 | 1.6 | 3.7 | -2.9 | -4.4 | x | -0.2 | 2.4 | -2.1 | -13.3
CC(=O)Nc1ccc(C(=O)NNC(=O)Cc2ccccc2)cc1 | 1.5 | -14.6 | -3.6 | 8.2 | -25.2 | x | -0.6 | -5.6 | 3.2 | 5.2
COc1cccc(/C=C(\C#N)c2nc3ccccc3[nH]2)c1OCC(=O)O | 11.9 | 2.1 | 7.9 | 9.5 | 5.7 | x | -1.6 | x | 2.1 | -2.9
CCc1cc2c3c(c1)C1(C(=O)N3C(C)(C)C=C2C)C(C#N)=C(N)Oc2[nH]c(=O)[nH]c(=O)c21 (stereo unspecified) | -0.8 | -0.9 | -2.9 | 0.3 | -1.8 | 8.8 | 0.2 | 11.2 | -1.9 | 10.7
O=C(CCC1CCCCC1)NCCS(=O)(=O)N1CCN(c2ccccc2)CC1 | 2.1 | -3.8 | -8.0 | 0.5 | -15.9 | 3.7 | 0.5 | -0.6 | -10.4 | 11.3
Cc1ccc(NC(=O)c2cc(=O)[nH]c3ccc(S(=O)(=O)N4CCOCC4)cc23)nc1 | 0.1 | 3.1 | -2.1 | -3.0 | 3.1 | -2.4 | -0.7 | -2.4 | 0.3 | -0.6
O=C(OCc1nc2ccccc2c(=O)[nH]1)c1cccs1 | -3.3 | x | x | x | 1.8 | -8.2 | 0.9 | -1.8 | -5.5 | -7.7
O=C(NNC(=O)c1cccs1)c1ccc(S(=O)(=O)N2CCCCC2)cc1 | 3.4 | 2.6 | 6.0 | 0.6 | -8.3 | -2.6 | 0.7 | 0.3 | 4.4 | -9.2
N[C@@H](Cc1ccccc1)c1nnc(SCc2ccccc2Cl)o1 | 7.0 | x | x | x | -1.1 | -2.2 | 0.0 | 98.4* | 9.1 | -1.0
Cc1cnc(NC(=O)c2ccccn2)s1 | -8.3 | -13.9 | -9.9 | -6.2 | -8.3 | 16.5 | -7.2 | x | 1.4 | 9.4
O=C(/C=C/c1ccc(Cl)cc1Cl)c1cccnc1 | 7.0 | x | x | x | 0.7 | 1.8 | -0.1 | 4.5 | -4.8 | 14.0
CCCC(=O)Nc1cccc(NC(=O)c2ccc3c(c2)OCO3)c1 | -0.5 | x | x | x | -6.9 | 2.3 | -4.9 | 0.4 | 2.7 | 1.5
CCOCCCNc1nc2c([nH]1)c(=O)n(C)c(=O)n2C | -3.4 | x | x | x | 12.1 | 4.6 | 0.5 | 5.6 | 13.3 | -3.1
O=C(Cn1cc(/C=N/O)c2ccccc21)N1CCOCC1 | 5.3 | x | x | x | -2.9 | -1.9 | 1.7 | 8.2 | 4.5 | -4.1
COc1cccc(NC(=O)COc2coc(CN3CCN(c4ccccc4)CC3)cc2=O)c1 | 3.1 | 8.0 | 9.8 | -0.2 | 13.5 | x | -0.3 | x | 3.9 | -8.7
O=C(NN=C1CCCCCC1)c1ccncc1 | 5.0 | 19.8 | 22.2 | 0.9 | -6.1 | -1.0 | 1.0 | 10.9 | -1.0 | x
CNC(=O)c1ccc(CN(C)CC(=O)Nc2ccccc2C(=O)NC2CC2)cc1 | 4.0 | 10.6 | 16.2 | 2.2 | x | 10.2 | 1.3 | 9.9 | -3.5 | x
CCCN1CCN(C(=O)C2CCCN(c3ncnc4c3nc3n4CCCCC3)C2)CC1 (stereo unspecified) | -2.5 | 3.6 | 4.0 | 0.5 | 13.5 | -3.2 | 1.1 | -0.8 | 1.2 | 10.7
O=C(Cn1cc2c(n1)CCCC2)NCc1ccccn1 | 99.7* | 8.8 | 5.7 | 3.1 | 7.2 | -5.2 | -0.1 | x | -1.4 | -13.6
Cc1ccc(NC(=O)CSc2nnc(C3CC3)n2CC2CCCO2)c(C)c1 (stereo unspecified) | 0.8 | 10.7 | 8.9 | 0.7 | -1.4 | -6.7 | -0.8 | -3.0 | 12.3 | -4.0
Cc1nnc(C)n1N | 6.8 | 12.6 | 6.2 | 0.4 | 2.2 | -1.0 | -1.0 | -1.4 | -0.6 | -2.3
CC1CCCN(CCCOc2ccc(Br)cc2Cl)C1 (stereo unspecified) | 9.7 | -15.7 | -19.4 | 11.6 | -19.6 | 8.1 | -0.4 | -24.0 | -1.3 | 42.4
Cn1cnnc1SC1c2cccc3cccc(c23)C1NS(=O)(=O)c1ccc(Cl)cc1 (stereo unspecified) | -2.8 | x | x | x | -2.0 | -2.2 | -0.7 | -8.0 | -1.6 | 6.6
O=C(N1CCCCCC1)n1c(Cc2ccccc2)nc2ccccc21 | 10.6 | x | x | x | 0.8 | -2.8 | -0.2 | 1.5 | -5.0 | 1.3
CCN(c1cccc(C)c1)S(=O)(=O)c1ccc2c(c1)NC(=O)CCS2 | 3.5 | 11.8 | 18.8 | 1.9 | 6.1 | -4.7 | -0.6 | 0.8 | 4.1 | -8.1
Cn1c(=O)[nH]c(NCCc2ccc(O)cc2)c([N+](=O)[O-])c1=O | -1.2 | 12.1 | 10.2 | 4.1 | 7.7 | 1.5 | -0.4 | 80.7* | 2.3 | 4.8
CCSc1nc2c(c(=O)[nH]1)C(c1cccnc1)C(C(=O)OC)=C(C)N2 (stereo unspecified) | 2.1 | x | x | x | -7.7 | -0.5 | -0.6 | -18.4 | -1.4 | x
CCOC(=O)c1c(-c2ccccc2)csc1NC(=O)CSc1nncs1 | -6.9 | x | x | x | -1.7 | 4.8 | -0.8 | x | 1.5 | 24.6
CS(=O)(=O)N1CCc2cc(C(=O)Nc3ccc(O)cc3)ccc21 | -0.8 | -10.9 | -6.9 | 0.5 | 15.0 | 0.9 | 0.1 | 99.1* | -1.3 | -25.2
CC(C)CCN1C(=O)c2ccc(C(=O)Nc3cc(C(=O)O)cc(C(=O)O)c3)cc2C1=O | -11.4 | -23.0 | -39.3 | -9.0 | -5.0 | x | 0.8 | 0.0 | -1.9 | -4.0
CCCNC(=O)CS(=O)Cc1nc(-c2ccccc2C)oc1C (stereo unspecified) | 2.0 | -1.8 | -1.8 | 2.6 | -3.1 | -3.9 | -0.2 | 99.3* | 8.7 | -5.1
CC(C)(C)OC(=O)[C@H](NC(=O)OCc1ccccc1)c1ccccc1 | -9.9 | -25.0 | -44.3 | -11.3 | x | 7.0 | -1.6 | 12.0 | 1.5 | x
O=C(Cn1nnc(-c2ccc(F)cc2)n1)OCC(=O)c1ccccc1 | -2.2 | 19.2 | 19.5 | 0.1 | -8.0 | -10.9 | -1.2 | 13.9 | -1.4 | -7.3
CC1=NN(C(N)=S)C(=O)C1N=Nc1cccc(Cl)c1C (stereo unspecified) | -4.5 | -8.3 | -3.9 | 1.2 | 12.0 | 26.9 | -10.6 | 6.0 | 0.8 | -30.0
Cc1c(NS(=O)(=O)c2cc(C(=O)NCCN(C)C)ccc2Cl)c(=O)n(-c2ccccc2)n1C | -4.0 | 10.4 | 14.1 | -1.6 | -4.9 | 2.3 | 0.5 | x | 2.2 | -6.2
C/C(=N/NC(=O)c1ccco1)c1ccc(NC(=O)c2ccc(F)cc2)cc1 | 3.5 | x | x | x | 8.9 | -9.9 | -0.8 | 0.0 | 1.7 | 0.9
CC1(C)CC(=O)C=C(c2cccc(O)c2)C1 | -6.8 | 0.7 | 1.7 | 3.3 | x | -2.2 | -0.8 | 34.4 | -5.3 | x
COCCNC(=O)C1CC(=O)N(c2ccc(F)c(Cl)c2)C1 (stereo unspecified) | 1.6 | 15.2 | 15.8 | -1.8 | -5.8 | x | x | x | x | -14.1
CCCCCCc1cc2cc(C(=O)Nc3ccccc3OC)c(=O)oc2cc1O | 13.2 | 7.8 | 4.0 | 3.3 | -1.4 | 19.4 | 0.3 | 12.4 | 2.2 | 1.8
Cc1ccc(S(=O)(=O)N2CCN(C(=O)CN3C(=O)CNC3=O)CC2)cc1 | -0.1 | 1.4 | 4.3 | -4.2 | x | -9.4 | -0.4 | -2.7 | 0.1 | x
CN(C)Cc1c(C(=O)N/N=C/c2cccc3ccccc23)nnn1-c1nonc1N | 5.2 | 4.5 | 7.4 | -3.1 | 7.8 | -4.1 | 0.8 | 30.7 | 6.3 | 16.3
CCOC(=O)C1CCN(S(=O)(=O)c2ccc(OCC)cc2)CC1 | 9.5 | x | x | x | 35.9 | -8.4 | 0.5 | -2.3 | 1.3 | -25.5
COCCNc1oc(Cc2cccc3ccccc23)nc1C#N | 0.6 | -11.8 | -15.2 | -2.0 | 2.0 | 6.8 | 0.8 | -15.3 | 5.4 | 4.5
CC1=CC(C)(C)n2c(O)c(N=NC(N)=S)c3cccc1c32 | -28.1 | x | x | x | 14.8 | -4.4 | 1.4 | 4.1 | -2.8 | 35.2
COc1ccc(C(=O)Nc2ccccc2C(=O)N2CCN(c3ccccc3)CC2)cc1 | 1.7 | -6.2 | -4.8 | 2.8 | 5.6 | 0.7 | 1.7 | 16.9 | 3.4 | 2.1

An excerpt, so the mix of outcomes need not match the whole.
